Menin-MLL FL inh: menin-MLL binding inhibition, fluorescein peptide. 290,000 tested, under 10 active. Fluorescence polarization, fluorescein-MLL peptide displacement from menin. FP activity change, % at 61.4 µM; inconclusive = falling polarisation curve, or a change in total fluorescence; inactive = total fluorescence flat and polarisation flat or rising; no compound was filed as active; the % refers to the polarisation; negative = inhibition;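 also: % of control where 0% means no effect; inhibitors lower the polarisation; unlabelled MLL peptide was the positive control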
ClpP mod: qHTS Assay for Activators of ClpP. purified B. subtilis ClpP, FRET peptide cleavage, 20 min. Potency, µM (doses to about 57.5 µM), for the others: at the top dose activity change, negative = active. actives 1.9% (n = 340,000). AID 651965, 2013; active = well fitted falling curve with a large enough effect; inconclusive = small, poorly fitted or top-dose-only effect; inactive = no such curve, though single readings can be large or run the other way; also: potency is read from the fitted curve at half-maximal effect; the source files actives as falling curves though it sought activators and does not explain the sign; nearly all actives have a fitted effect of over 65% in size; many hits overshoot -100%
Target sequence (P80244 whole entry, looked up): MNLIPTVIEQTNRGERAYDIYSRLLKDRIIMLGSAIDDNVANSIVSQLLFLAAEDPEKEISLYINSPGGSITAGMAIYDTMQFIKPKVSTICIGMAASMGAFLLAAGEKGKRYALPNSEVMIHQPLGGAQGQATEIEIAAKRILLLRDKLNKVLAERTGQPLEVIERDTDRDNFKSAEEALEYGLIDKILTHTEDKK
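Purified B. subtilis ClpP, 10 microg/mL final in Tris/HCl pH8 with KCl, BSA, glycerol and Tween-20, cleaved an Abz/nitrotyrosine-quenched decapeptide. Fluorescence (ex 320, em 430) was read at 0 and 20 min at room temperature. Delta was normalized to 5.8 microM ADEP and DMSO/no-enzyme controls.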
gsp antagonist: antagonists of gsp mutant (McCune-Albright syndrome) | gsp-mutant cells, cAMP HTRF, 30 min; control for the full effect not named in the record | Potency, µM (titrated, usually from 76.9 µM), inactives show top-dose activity change, negative = inhibition, usual class: inhibitors | actives 0.4% (n = 340,000) | AID 624288; active = falling curve of any shape with a large fitted effect; inconclusive = falling curve, mostly with a smaller effect; inactive = flat or rising curve; cell line not stated here;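 also: intracellular cAMP measured with PDE inhibitor Ro 20-1724 present during compound exposure; potency is read from the fitted curve at half-maximal effect; % is scaled to controls: 0 for no effect and ±100 for the full control effect; nearly all actives have a fitted effect of over 65% in size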
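HTRF cAMP measurement after 30 min RT detection following 30 min, 37C compound treatment alongside […] (added as 300 uM solution) in G418-selected cells seeded at 2000/well and grown 16–24 h.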
gsp ag: agonists of gsp mutant (McCune-Albright syndrome). actives 0.13% (n = 340,000). AID 624287. Potency, µM (doses to about 76.9 µM), for the others: at the top dose activation (cAMP increase), actives largely listed as activators. gsp mutant cells, cAMP HTRF, 30 min; control for the full effect not named in the record; active = well fitted activation curve with a large enough effect; inconclusive = small, poorly fitted or top-dose-only effect, or another doubt; inactive = no such curve, though single readings can be large or run the other way; cell line not stated here;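 also: phosphodiesterase inhibitor Ro 20-1724 added with compounds to block cAMP breakdown; potency is read from the fitted curve at half-maximal effect; nearly all actives have a fitted effect of over 60% in size; about a fifth of the inactives were tested at one dose only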
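Cells in DMEM/10% FBS with G418 were pretreated with compounds in DMSO plus […] (300 uM stock) for 30 min at 37C. cAMP was measured by HTRF (cAMP-d2 plus anti-cAMP antibody-K) after 30 min at room temperature.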
TRPV1 potentiator: human TRPV1 potentiation | Q8NER1 | TRPV1-expressing cells, Fluo-8 calcium influx, capsaicin EC20 potentiation; host cell line not named in the record; control for the full effect not named in the record | potentiation, % at 8.33 µM | actives 0.02% (n = 320,000) | AID 540277; active means potentiation above 80%; inconclusive means 30% to 80%; inactive means below 30%; also: 0% is about no effect
Target sequence (Q8NER1 whole entry, looked up): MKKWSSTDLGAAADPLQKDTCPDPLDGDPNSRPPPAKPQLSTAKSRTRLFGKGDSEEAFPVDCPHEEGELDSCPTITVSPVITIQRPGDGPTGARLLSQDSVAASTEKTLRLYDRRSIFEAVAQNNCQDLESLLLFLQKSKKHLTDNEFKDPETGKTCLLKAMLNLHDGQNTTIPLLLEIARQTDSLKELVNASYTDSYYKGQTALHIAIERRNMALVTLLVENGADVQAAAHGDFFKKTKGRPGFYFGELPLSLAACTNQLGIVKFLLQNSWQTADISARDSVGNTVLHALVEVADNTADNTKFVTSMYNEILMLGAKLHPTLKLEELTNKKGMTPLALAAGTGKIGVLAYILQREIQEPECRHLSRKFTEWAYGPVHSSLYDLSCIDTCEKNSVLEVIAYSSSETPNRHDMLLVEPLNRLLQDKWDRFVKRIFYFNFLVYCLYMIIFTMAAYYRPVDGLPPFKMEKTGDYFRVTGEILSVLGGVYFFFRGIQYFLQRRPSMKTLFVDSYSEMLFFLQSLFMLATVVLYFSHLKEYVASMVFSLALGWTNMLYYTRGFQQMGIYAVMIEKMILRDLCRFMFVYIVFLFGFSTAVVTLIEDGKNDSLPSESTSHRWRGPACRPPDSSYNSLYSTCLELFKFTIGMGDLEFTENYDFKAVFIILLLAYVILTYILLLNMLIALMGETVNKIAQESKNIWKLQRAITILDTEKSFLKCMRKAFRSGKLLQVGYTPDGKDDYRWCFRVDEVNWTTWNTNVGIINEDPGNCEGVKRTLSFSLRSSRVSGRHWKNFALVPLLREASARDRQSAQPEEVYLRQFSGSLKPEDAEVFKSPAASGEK
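TRPV1-expressing cells were cultured overnight at 35.5C and loaded with Fluo-8 calcium dye for 40 to 90 min at room temperature. After a 10 s baseline, compound was added and calcium influx was read kinetically for 3 min (ex 480/em 520 nm).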
Sfp PPTase inh: blocks B. subtilis Sfp PPTase activity; Q9F4F7; Biochemical Sfp PPTase activity, qHTS; Potency, µM, inactives show max response, negative = inhibition, hits mostly inhibitors; actives 3.5% (n = 310,000); AID 1490; active = well fitted inhibition curve with a large enough effect; inconclusive = small, poorly fitted or top-dose-only effect, or another doubt; inactive = no such curve, though single readings can be large or run the other way;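 also: the enzyme is Sfp with the accession as filed and its product quenches rhodamine fluorescence; potency is read from the fitted curve at half-maximal effect; 0% = enzyme reaction without inhibitor and -100% = no enzyme wells; top concentration of the series not given in the record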
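Compounds were incubated with enzyme (final 15 nM) for 15 min at room temperature before substrate addition started the reaction. Fluorescence at 525 nm excitation, 598 nm emission was recorded immediately and after 30 minutes.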
CtBP-E1A blk: inhibitors of CtBP/E1A interaction | AlphaScreen GST-E1A/His-CtBP binding, 1536-well; stronger effect = lower value; control for the full effect not named in the record | AID 651724 | actives 0.49% (n = 340,000) | activity change, % (test concentration not listed); in the data active means activity change below about -65%; inconclusive means about -30% to -65%; inactive means above about -30%; also: % is scaled to controls: 0 for no effect and ±100 for the full control effect; compound concentration not given in the record
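In 5 uL wells, 23 nL compound meets equimolar GST-E1A and His-CtBP (5X stock 125 nM each) for 2 h, 37 °C. Beads (5X, 50 ug/mL) then 1 h, 37 °C, dark.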
Starred values were filed as active, the others as inactive; & = joins results of further samples; [ ] = dose if it differs, or a comment.

CC(C)OC(=O)CNc1n[nH]c(=S)[nH]c1=O was read as Menin-MLL FL inh 0.7, gsp ag 36%[15.4 µM], TRPV1 potentiator -42, Sfp PPTase inh 45µM* and CtBP-E1A blk -8.
CCOCC(=O)Nc1ccc(OCc2ccccc2)cc1 was read as Menin-MLL FL inh -10, gsp antagonist -1%, gsp ag -3%, TRPV1 potentiator -4, Sfp PPTase inh 2% and CtBP-E1A blk 3.
`CCOC(=O)c1cnc2ccc(Br)cc2c1NCCCN1CCOCC1` gave Menin-MLL FL inh -0.5, ClpP mod -4.7%, gsp antagonist -31%, gsp ag inconclusive, TRPV1 potentiator -2, Sfp PPTase inh -1% and CtBP-E1A blk 3.
`C=CCn1c(Cc2cccs2)nnc1SCC(=O)Nc1ccc(OC)cc1` gave Menin-MLL FL inh 2.1, ClpP mod -1.4%, gsp antagonist -10%, gsp ag -12%, TRPV1 potentiator -12, Sfp PPTase inh 12% and CtBP-E1A blk -4.
Cc1cc(NC(=O)CSc2n[nH]c(-c3ccc(Cl)cc3Cl)n2)no1 was read as ClpP mod 0.0%, gsp antagonist -18%, gsp ag 9% and TRPV1 potentiator 17.
Screening COc1ccc(C(CC(=O)O)NC(=O)C(c2ccccc2)c2ccccc2)cc1 (stereo not given) returned Menin-MLL FL inh 2.8, ClpP mod 2.3%, gsp antagonist 3%, gsp ag 2%[15.4 µM], TRPV1 potentiator 1, Sfp PPTase inh 15% and CtBP-E1A blk 2.
Cc1cc(NS(=O)(=O)c2ccc(NC(=S)NC(=O)c3ccc(C(C)(C)C)cc3)cc2)no1 was read as Menin-MLL FL inh -0.3, ClpP mod 0.9%, gsp antagonist inconclusive, gsp ag -38%[inhibitor], TRPV1 potentiator 2, Sfp PPTase inh -10% and CtBP-E1A blk 4.
COc1cc2cc(CN(Cc3cccnc3)C(=O)Nc3ccccc3F)c(=O)[nH]c2cc1OC was read as Menin-MLL FL inh 5.4, ClpP mod 4.0%, gsp antagonist -20%, gsp ag 5%, TRPV1 potentiator 6, Sfp PPTase inh -3% and CtBP-E1A blk -1.
For O=C(Nc1nccs1)C(NS(=O)(=O)c1ccc(Br)s1)c1ccccc1 (stereo not given) the results were Menin-MLL FL inh 2.3, ClpP mod 0.1%, gsp antagonist -5%, gsp ag -53%[inhibitor], TRPV1 potentiator 26, Sfp PPTase inh 16% and CtBP-E1A blk -6.
For O=C(Cc1ccc(-n2c(=O)[nH]c3ccsc3c2=O)cc1)N1CCN(c2ccc(Cl)cc2)CC1 the results were Menin-MLL FL inh 6.6, ClpP mod 2.1%, gsp antagonist -29%, gsp ag -9%[15.4 µM], TRPV1 potentiator -10, Sfp PPTase inh 2% and CtBP-E1A blk -10.
Screening COc1ccc(Cl)cc1C(=O)N/N=C/c1ccc(N2CCOCC2)cc1 returned Menin-MLL FL inh inconclusive, ClpP mod 0.6%, gsp antagonist 9%, gsp ag -9%[15.4 µM], TRPV1 potentiator 1, Sfp PPTase inh -1% and CtBP-E1A blk 3.
O=C(CN1CCN(CC(=O)c2ccc(Cl)cc2)CC1)c1ccc(Cl)cc1 was read as ClpP mod -1.2%, gsp antagonist -7%, gsp ag -5%[15.4 µM] and CtBP-E1A blk 2.
For O=C(Cc1cccs1)Nc1ccc(S(=O)(=O)Nc2ncccn2)cc1 the results were Menin-MLL FL inh inconclusive, ClpP mod 0.3%, gsp antagonist 7%, gsp ag -9%, TRPV1 potentiator 6, Sfp PPTase inh -3% and CtBP-E1A blk -1.
`CC(NC(=O)CSc1nc2c(c(C(F)(F)F)n1)CCc1ccccc1-2)c1ccccc1` (stereo not given) gave Menin-MLL FL inh 0.2, ClpP mod -11%, gsp antagonist -19%, gsp ag 4%, TRPV1 potentiator -2, Sfp PPTase inh 16% and CtBP-E1A blk -1.
`COc1ccc(/C=C/C(=O)N2c3ccccc3Sc3ccc(C(F)(F)F)cc32)cc1` gave Menin-MLL FL inh 2.1, ClpP mod 0.7%, gsp antagonist -9%, gsp ag -39%[inhibitor], TRPV1 potentiator -4, Sfp PPTase inh 11% and CtBP-E1A blk -15.
COC(=O)c1ccc2nc(C3CCCCC3)c3c(c2c1)CCC3 was read as ClpP mod -1.6%, gsp antagonist 7%, gsp ag -9% and CtBP-E1A blk 5.
`CC(C)(C)C(=O)/C(=C/c1ccncc1)n1cncn1` gave Menin-MLL FL inh -2.6, ClpP mod -1.5%, gsp antagonist -10%, gsp ag -32%, TRPV1 potentiator -9, Sfp PPTase inh 35µM* and CtBP-E1A blk -4.
Nc1cccn2c(-c3ccc(Cl)c(Cl)c3)cnc12 was read as Menin-MLL FL inh inconclusive, gsp antagonist -16%, gsp ag 26%[15.4 µM], TRPV1 potentiator 1, Sfp PPTase inh -17% and CtBP-E1A blk -12.
O=C(Oc1coc(CSc2nnc(NC(=O)C3CC3)s2)cc1=O)c1c(F)cccc1F was read as Menin-MLL FL inh 11, gsp antagonist 10%, gsp ag 15%, TRPV1 potentiator -3, Sfp PPTase inh -8% and CtBP-E1A blk -4.
CCN(CC)c1ncnc2sc3c(c12)CCC3 was read as Menin-MLL FL inh -0.7, ClpP mod -2.3%, gsp antagonist -11%, gsp ag 16%, TRPV1 potentiator -14, Sfp PPTase inh -4% and CtBP-E1A blk 10.
`COc1ccccc1NC(=O)CSC1=NCCN1` gave Menin-MLL FL inh 2.0, ClpP mod 1.4%, gsp antagonist 13%, gsp ag inconclusive, TRPV1 potentiator -4, Sfp PPTase inh -4% and CtBP-E1A blk 8.
For COc1ccc(S(=O)(=O)Nc2ccc(S(=O)(=O)Nc3ccc(F)cc3)cc2)cc1C the results were Menin-MLL FL inh 1.6, ClpP mod 0.7%, gsp antagonist -25%, gsp ag 4%, TRPV1 potentiator -6, Sfp PPTase inh 12% and CtBP-E1A blk -3.
`O=C(CN(C(=O)CNC(=O)c1ccco1)c1ccc2c(c1)OCO2)NC1CCCCC1` gave Menin-MLL FL inh 1.5, ClpP mod 1.2%, gsp antagonist 13%, gsp ag 9%, TRPV1 potentiator -6, Sfp PPTase inh 0% and CtBP-E1A blk 0.
COc1ccc(C(=O)NCc2cccnc2)cc1Br was read as Menin-MLL FL inh 3.1, ClpP mod 0.0%, gsp antagonist 11%, gsp ag 7%, TRPV1 potentiator -8, Sfp PPTase inh -7% and CtBP-E1A blk -3.
Screening CCC(O)c1cc2c(cc1NC(=O)c1ccc(C)cc1)OCCO2 (stereo not given) returned Menin-MLL FL inh 3.4, ClpP mod -1.9%, gsp antagonist -1%, gsp ag inconclusive, TRPV1 potentiator 29, Sfp PPTase inh 1% and CtBP-E1A blk 9.
COc1ccccc1CNC(=O)COC(=O)CSc1ccc(Cl)cc1 was read as gsp antagonist 4%, gsp ag -36%[15.4 µM], TRPV1 potentiator -1 and CtBP-E1A blk 0.
`CC(C)(C)n1ncc(Oc2ccccc2[N+](=O)[O-])c(Cl)c1=O` gave Menin-MLL FL inh 5.1, ClpP mod -6.2%, gsp antagonist -20%, gsp ag -56%[inhibitor], TRPV1 potentiator -13, Sfp PPTase inh -10% and CtBP-E1A blk -11.
CCN(C(=O)COC(=O)/C(C#N)=C/c1cc(C)n(CCOC)c1C)c1c(N)n(Cc2ccccc2)c(=O)[nH]c1=O was read as ClpP mod -2.8%, gsp antagonist 2%, gsp ag -11% and CtBP-E1A blk -11.
`O=C(NCc1cccc(Cl)c1)NCc1cccc(Cl)c1` gave Menin-MLL FL inh 3.2, ClpP mod -2.7%, gsp antagonist 1%, gsp ag 12%, TRPV1 potentiator -20, Sfp PPTase inh 6% and CtBP-E1A blk 15.
Screening CC1CCC(C(C)C)C(OCC(O)CNC(C)c2ccccc2)C1 (stereo not given) returned Menin-MLL FL inh -4.4, gsp antagonist 7%, gsp ag 33%[15.4 µM], TRPV1 potentiator 4, Sfp PPTase inh 0% and CtBP-E1A blk 1.
CC(C)C[C@@H](CC#N)N1CCN(CCc2ccccc2)CCC1=O was read as Menin-MLL FL inh 0.1, ClpP mod -1.2%&-2.5%, gsp antagonist 10%, TRPV1 potentiator -9, Sfp PPTase inh 5% and CtBP-E1A blk -1.
For CCN1C(=O)c2ccc(C(=O)Nc3nccs3)cc2C1=O the results were Menin-MLL FL inh -0.2, ClpP mod 2.6%, gsp antagonist 2%, gsp ag -24%, TRPV1 potentiator -13, Sfp PPTase inh 5% and CtBP-E1A blk -1.
`CC1=C(C(=O)OC2CCCCC2)C(c2ccccc2F)NC(=O)N1` (stereo not given) gave Menin-MLL FL inh 2.2, ClpP mod -1.5%, gsp antagonist -13%, gsp ag 19%[15.4 µM], TRPV1 potentiator 6, Sfp PPTase inh 8% and CtBP-E1A blk -11.
Screening CC(=O)NCCNc1nc2c(-c3cccc(C(F)(F)F)c3)nnn2c2ccccc12 returned Menin-MLL FL inh 4.0, ClpP mod 0.2%, gsp antagonist 18%, gsp ag -9%[15.4 µM], TRPV1 potentiator 23, Sfp PPTase inh 16% and CtBP-E1A blk -8.
Screening CCc1cc(=O)oc2cc(C)cc(OC(C)C(=O)NCc3cccnc3)c12 (stereo not given) returned Menin-MLL FL inh -1.5, ClpP mod 3.6%, gsp antagonist -3%, gsp ag 1%, TRPV1 potentiator -2, Sfp PPTase inh 8% and CtBP-E1A blk 1.
Screening OCCc1ccccc1 returned Menin-MLL FL inh -29, ClpP mod 0.1%, gsp antagonist 3%, Sfp PPTase inh 12% and CtBP-E1A blk 4.
CC(C)c1nnc(NC(=O)CCC(=O)N2CCN(Cc3ccc(F)cc3)CC2)s1 was read as ClpP mod 0.2%, gsp antagonist 3%, gsp ag -15%, TRPV1 potentiator -6, Sfp PPTase inh 8% and CtBP-E1A blk 1.
Screening CCCn1cc(S(=O)(=O)c2ccc(C)cc2)c(=O)c2cc(OCC)ccc21 returned ClpP mod -30%, gsp antagonist -17%, gsp ag 5%, TRPV1 potentiator -18, Sfp PPTase inh 0% and CtBP-E1A blk -2.
Screening O=S1(=O)c2ccccc2N=NN1Cc1ccc(Cl)cc1 returned Menin-MLL FL inh 2.8, ClpP mod 2.0%, gsp antagonist -5%, gsp ag -20%, TRPV1 potentiator 28, Sfp PPTase inh 50µM* and CtBP-E1A blk 2.
